# gsp ag: qHTS for Agonist of gsp, the Etiologic Mutation Responsible for Fibrous Dysplasia/McCune-Albright Syndrome: qHTS; Potency, µM (titrated, usually from 76.9 µM), for the others: at the highest dose activation (cAMP increase), hits mostly activators; actives 0.13% (n = 340,000); AID 624287, 2012; gsp mutant cells, cAMP HTRF, 30 min; control for the full effect not named in the record; active = well fitted activation curve with a large enough effect; inconclusive = small, poorly fitted or top-dose-only effect, or another doubt; inactive = no such curve, though single readings can be large or run the other way; cell line not stated here;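 note: phosphodiesterase inhibitor Ro 20-1724 added with compounds to block cAMP breakdown; potency is the fitted concentration of half-maximal effect; nearly all actives have a fitted effect of over 60% in size; about a fifth of the inactives were tested at one dose only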
#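 Cells stably selected in G418 were plated at 2000/well, grown 16-24 hr, then given compounds in DMSO with the PDE inhibitor […] (300 uM solution added) for 30 min at 37C; cAMP was read by HTRF.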
# gsp antag: qHTS for Antagonists of gsp, the Etiologic Mutation Responsible for Fibrous Dysplasia/McCune-Albright Syndrome: qHTS. gsp-mutant cells, cAMP HTRF, 30 min; control for the full effect not named in the record. Potency, µM (doses to about 76.9 µM), inactives show top-dose activity change, negative = inhibition, actives largely listed as inhibitors. actives 0.4% (n = 340,000). AID 624288, 2012; active = falling curve of any shape with a large fitted effect; inconclusive = falling curve, mostly with a smaller effect; inactive = flat or rising curve; cell line not stated here;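 note: intracellular cAMP measured with PDE inhibitor Ro 20-1724 present during compound exposure; potency is the fitted concentration of half-maximal effect; % is set by controls: 0 for no effect and ±100 for the full control effect; nearly all actives have a fitted effect of over 65% in size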
#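 Cells, 2000/well, grown 16–24 h in DMEM 10% FBS with 0.5 mg/ml G418, then compounds plus […] (300 uM addition stock), 30 min at 37C. cAMP read by HTRF (cAMP-d2 and anti-cAMP antibody-K in lysis buffer) after 30 min RT.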
# CtBP-E1A blk: qHTS Assay for Inhibitors of the CtBP/E1A Interaction. actives 0.49% (n = 340,000). AlphaScreen GST-E1A/His-CtBP binding, 1536-well; hits give low values; control for the full effect not named in the record. activity change, % (test concentration not listed). CtBP / adenovirus E1A interaction (AlphaScreen); in the data active means activity change below about -65%; inconclusive means about -30% to -65%; inactive means above about -30%; note: % is set by controls: 0 for no effect and ±100 for the full control effect; compound concentration not given in the record
#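 In 5 uL wells, 23 nL compound meets equimolar GST-E1A and His-CtBP (5X stock 125 nM each) for 2 h, 37 °C. Beads (5X, 50 ug/mL) then 1 h, 37 °C, dark.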
# TRPV1 potentiator: HTS Assay for Compounds that Act as Potentiators of the Vanilloid Receptor 1 | TRPV1-expressing cells, Fluo-8 calcium influx, capsaicin EC20 potentiation; host cell line not named in the record; control for the full effect not named in the record | potentiation, % at 8.33 µM | actives 0.02% (n = 320,000); active means potentiation above 80%; inconclusive means 30% to 80%; inactive means below 30%; note: 0% is about no effect
# Target sequence (Q8NER1 whole entry, looked up): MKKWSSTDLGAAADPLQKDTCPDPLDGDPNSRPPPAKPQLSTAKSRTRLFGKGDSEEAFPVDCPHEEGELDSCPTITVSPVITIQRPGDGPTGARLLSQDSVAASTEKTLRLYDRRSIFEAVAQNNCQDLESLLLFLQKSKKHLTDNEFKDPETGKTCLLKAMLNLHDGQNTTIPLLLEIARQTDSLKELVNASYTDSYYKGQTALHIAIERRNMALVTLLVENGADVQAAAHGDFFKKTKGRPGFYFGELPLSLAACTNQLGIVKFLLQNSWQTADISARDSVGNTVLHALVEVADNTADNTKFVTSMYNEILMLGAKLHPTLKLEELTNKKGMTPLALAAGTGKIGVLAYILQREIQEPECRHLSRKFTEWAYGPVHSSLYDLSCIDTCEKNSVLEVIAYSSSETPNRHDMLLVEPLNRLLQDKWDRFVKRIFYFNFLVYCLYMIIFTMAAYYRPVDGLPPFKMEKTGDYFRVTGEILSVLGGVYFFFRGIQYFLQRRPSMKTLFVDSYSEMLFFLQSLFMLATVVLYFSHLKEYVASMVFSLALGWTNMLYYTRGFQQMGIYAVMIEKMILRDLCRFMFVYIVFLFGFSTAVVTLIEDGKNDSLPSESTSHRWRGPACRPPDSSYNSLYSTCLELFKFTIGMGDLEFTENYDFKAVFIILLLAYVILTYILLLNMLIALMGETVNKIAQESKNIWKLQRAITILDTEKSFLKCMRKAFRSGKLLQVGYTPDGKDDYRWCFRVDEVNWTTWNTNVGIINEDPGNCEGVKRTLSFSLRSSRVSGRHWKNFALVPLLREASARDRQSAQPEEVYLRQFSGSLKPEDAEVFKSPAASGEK
#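 Fluo-8 calcium influx in TRPV1-expressing cells, kinetic read (ex 480/em 520 nm). Compound added and read 3 min for agonist activity, followed by capsaicin at EC20 final and 2 min further read for enhancement.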
# Sfp PPTase inh: qHTS Assay for Inhibitors of Bacillus subtilis Sfp phosphopantetheinyl transferase (PPTase). 4'-phosphopantetheinyl transferase ffp (Bacillus subtilis), Q9F4F7. Biochemical Sfp PPTase activity, qHTS. Potency, µM, for the others: max response, negative = inhibition, most hits filed as inhibitors. actives 3.5% (n = 310,000); active = well fitted inhibition curve with a large enough effect; inconclusive = small, poorly fitted or top-dose-only effect, or another doubt; inactive = no such curve, though single readings can be large or run the other way;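 note: the enzyme is Sfp with the accession as filed and its product quenches rhodamine fluorescence; potency is the fitted concentration of half-maximal effect; 0% = enzyme reaction without inhibitor and -100% = no enzyme wells; top concentration of the series not given in the record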
#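 Step 1, compound plus 15 nM Sfp-PPTase, 15 min, room temperature. Step 2, add rhodamine-CoA (5 uM) and BHQ-2-YbbR (12.5 uM). Step 3, read 525/598 nm fluorescence at 0 and 30 min.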
# Menin MLL FP FL: qHTS Assay for Inhibitors Targeting the Menin-MLL Interaction in MLL Related Leukemias: Competition With Fluorescein Labeled MLL-derived Peptide. Fluorescence polarization, fluorescein-MLL peptide displacement from menin. FP activity change, % at 61.4 µM. 290,000 tested, under 10 active; inconclusive = falling polarisation curve, or a change in total fluorescence; inactive = total fluorescence flat and polarisation flat or rising; no compound was filed as active; the % refers to the polarisation; negative = inhibition;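 note: % of control where 0% means no effect; inhibitors lower the polarisation; unlabelled MLL peptide was the positive control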
# ClpP mod: qHTS Assay for Activators of ClpP; ATP-dependent Clp protease proteolytic subunit (Bacillus subtilis (strain 168)), P80244; purified B. subtilis ClpP, FRET peptide cleavage, 20 min; Potency, µM (top dose mostly 57.5 µM), for inactives: top-dose activity change, negative = active; actives 1.9% (n = 340,000); AID 651965, 2013; active = well fitted falling curve with a large enough effect; inconclusive = small, poorly fitted or top-dose-only effect; inactive = no such curve, though single readings can be large or run the other way; note: potency is the fitted concentration of half-maximal effect; the source files actives as falling curves though it sought activators and does not explain the sign; nearly all actives have a fitted effect of over 65% in size; many hits overshoot -100%
# Target sequence (P80244 whole entry, looked up): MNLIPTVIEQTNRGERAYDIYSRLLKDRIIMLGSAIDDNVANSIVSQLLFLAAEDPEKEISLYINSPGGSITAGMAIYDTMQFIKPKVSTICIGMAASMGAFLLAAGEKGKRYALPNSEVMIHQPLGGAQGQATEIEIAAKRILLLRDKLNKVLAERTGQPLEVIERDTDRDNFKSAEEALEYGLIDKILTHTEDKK
#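 Purified B. subtilis ClpP, 10 microg/mL final in Tris/HCl pH8 with KCl, BSA, glycerol and Tween-20, cleaved an Abz/nitrotyrosine-quenched decapeptide. Fluorescence (ex 320, em 430) was read at 0 and 20 min at room temperature. Delta was normalized to 5.8 microM ADEP and DMSO/no-enzyme controls.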
# An asterisk follows results filed as active; ? = inconclusive; . = no result given; & = joins results of further samples; [ ] = another dose, or the depositor's remark. The order is random; about 5.3% have a hit in one of these screens.
Compound	gsp ag	gsp antag	CtBP-E1A blk	TRPV1 potentiator	Sfp PPTase inh	Menin MLL FP FL	ClpP mod
COCc1cc(C)nc(SCC(=O)Nc2nc(C)cs2)c1C#N	7.0%	-3.2%	3.6	23.5	-20.1%	-5.0	.
COc1ccccc1C1(CCNC(C)c2cccs2)CCOC(C(C)C)C1 (configuration not stated)	-4.0%[15.4 µM]	9.9%	24.6	6.6	-0.1%	-0.4	.
CCOc1ccccc1NC(=O)C1C2C=CC(O2)C1C(=O)O (configuration not stated)	-4.1%	9.6%	7.5	0.6	?	0.8	-2.6%
O=C(CCC(=O)c1cccs1)NCc1cccc(Cl)c1	-1.0%[15.4 µM]	6.8%	3.5	20.3	.	.	0.3%
C=CCn1c(SCc2ccc(Cl)cc2)nc2cc(C(=O)N3CCC(C(N)=O)CC3)ccc2c1=O	2.4%	7.6%	-0.5	1.5	-13.3%	7.0	-1.2%
CCOc1cc(/C=N/NC(=O)c2nnn(-c3nonc3N)c2C)ccc1OCc1cccc(F)c1	-5.3%	5.9%	.	10.5	7.7%	.	?
CCCOc1ccc(C(=O)C(CN2CCOCC2)c2ccccc2)cc1 (configuration not stated)	15.4%	4.2%	-7.2	-15.0	2.9%	0.6	-1.0%
COC(=O)C1N[C@@H]([C@@H](NC(=O)COc2ccccc2)C(=O)NC2CC2)SC1(C)C (some centres not stated)	4.5%	16.5%	.	.	.	.	-0.5%&-0.2%
Cc1ccc(S(=O)(=O)NC(CC(N)=O)C(=O)O)cc1 (configuration not stated)	0.8%	7.0%	-2.6	5.5	-6.7%	0.5	-1.5%
COCCCN=CC1=C(O)CC(C)(C)CC1=O	-28.8%	9.1%	6.7	-0.9	16.5%	-2.1	-1.8%
CCOC(=O)c1c(NC(=O)CN2C(=O)CN(C)C2=O)sc(C)c1C	16.2%	2.6%	1.6	11.6	7.8%	3.5	.
CS(=O)(=O)Nc1ccc(N2CCN(c3ccc(C(F)(F)F)cn3)CC2)nc1	4.6%[15.4 µM]	6.7%	-2.3	-3.7	6.1%	-0.1	1.1%
Cc1nn(-c2ccc(Cl)cc2Cl)c(C)c1C(=O)O	9.7%[15.4 µM]	-9.4%	3.3	1.7	5.0%	0.0	.
CC(Cl)C(=O)N1c2ccccc2CCc2ccccc21 (configuration not stated)	5.2%	-10.9%	.	4.4	4.0%	-0.3	2.4%
O=C(N/N=C/c1ccc(OC(F)F)cc1)c1ccc(CSc2nc3ccccc3[nH]2)cc1	29.6%[15.4 µM]	8.91µM*	-6.0	0.9	28.3%	2.0	.
COc1cccc(/C=N/n2c(N)c(S(=O)(=O)c3cccs3)c3nc4ccccc4nc32)c1	0.0%	6.6%	-14.4	7.6	3.4%	3.9	2.82µM*
COc1cc2[nH]c(=S)nc(NCCc3ccc(S(N)(=O)=O)cc3)c2cc1OC	12.6µM*	-2.7%	-90.2*	5.3	-6.8%	-6.2	-2.4%
O=C(COC(=O)c1ccccc1-c1ccccc1[N+](=O)[O-])c1ccccc1	30.9%	-7.2%	-0.3	4.6	-7.6%	1.3	-0.6%
COc1ccccc1NC(=O)N(C)C[C@@H]1OCc2cnnn2CCCC(=O)N([C@H](C)CO)C[C@@H]1C	-1.7%	.	4.9	.	.	.	0.5%
N#Cc1c(NC(=O)CCCN2C(=O)c3ccccc3C2=O)oc(-c2ccccc2)c1-c1ccccc1	52.6%	-2.5%	-3.0	-14.6	1.3%	-1.9	23.8%
O=c1c2ccccc2sn1-c1ccccc1F	-5.2%	.	0.0	.	.	.	-4.2%
CC1CCCCC1NC(=O)CN1C(=O)NC(C)(c2ccc(OC(F)F)cc2)C1=O (configuration not stated)	-13.0%	3.3%	7.2	-9.5	9.1%	11.1	-1.9%
Oc1ccccc1N1CCN(C(=S)NCc2ccccc2)CC1	6.9%	9.7%	-7.9	-15.9	1.2%	-1.6	1.6%
CCOc1ccc(NC(=O)c2ccc(F)c(S(=O)(=O)N3CCCC3)c2)cc1	-30.4%[inhibitor]	.	0.6	.	.	.	17.3%
O=C(Cc1ccccc1)Nc1nc2ccccc2[nH]1	-14.6%	2.4%	6.4	21.3	20.9%	3.8	-9.3%
O=C(/C=C/c1ccccc1)Nc1ccc(Br)cn1	0.4%	18.9%	0.5	-3.7	23.5%	2.5	-1.0%
Cc1ccccc1NC(=O)CSc1ccc(-c2cccnc2)nn1	22.7%	0.3%	-1.0	10.4	11.0%	1.3	-15.8%
Cc1ccsc1/C=N/N1CCOCC1	17.2%[15.4 µM]	6.1%	-0.5	-0.5	-16.7%	-0.4	.
O=C(c1cc(Cl)nc2ccccc12)N1CCCCC1	-0.1%	2.0%	8.6	6.3	6.6%	5.2	0.4%
COc1cccc(-n2nnc3c(=O)n(Cc4ccccc4Cl)cnc32)c1	-14.3%	1.3%	17.7	29.4	-0.1%	-0.3	-9.6%
Cc1cccc(Cn2nnc3c2C(=O)c2ccccc2C3=O)c1	-39.6%[inhibitor]	-5.9%	-3.8	-0.9	-7.4%	-1.8	-2.0%
Cc1noc(NS(=O)(=O)c2ccc(NC(=O)/C=C/c3ccc(Cl)cc3Cl)cc2)c1C	17.9%	.	1.2	.	.	.	2.3%
Cc1ccc(N2CC(C(=O)Nc3ccc(S(=O)(=O)NCC4CCCO4)cc3)CC2=O)cc1C (configuration not stated)	-1.8%	-9.9%	-2.8	1.8	30.0%[activator]	4.2	.
Cc1nc(SC(C)C(=O)NC2CCCC2)c2ccccc2n1 (configuration not stated)	?	0.2%	.	-4.3	.	.	1.5%
COc1cccc(OCC(=O)NCC2CCCO2)c1 (configuration not stated)	-16.7%	8.1%	7.9	.	.	.	-0.2%
COCCn1c(SCC(=O)N2CCOCC2)nnc1-c1ccncc1	?	-2.7%	0.6	9.3	12.3%	-1.3	.
O=C(Nc1ccccn1)c1ccc(Cl)c([N+](=O)[O-])c1	-12.5%	-9.6%	-7.1	-6.2	12.7%	0.1	.
Cc1sc2nc(C3CC3)nc(SCC(=O)N3c4ccccc4CC3C)c2c1C (configuration not stated)	-1.5%	-11.3%	-3.7	-5.7	1.8%	2.4	-5.4%
N#Cc1cnc(SCC(=O)N2CCCC2)nc1N	?	4.7%	-9.1	1.8	13.7%	2.1	-4.2%
COc1ccc(NC(=O)c2ccccc2Sc2ccc(NC(C)=O)nc2)cc1	8.1%	8.5%	-3.5	23.2	11.5%	3.1	.
COc1ccc(CNC(=O)CSCc2cccc(Cl)c2)cc1	-46.0%[inhibitor]	1.7%	2.1	-13.1	18.0%	-1.0	-5.8%
NC(=O)CSc1oc(-c2ccco2)nc1S(=O)(=O)c1ccccc1	-40.1%[inhibitor]	-11.4%	-3.8	4.8	7.9%	5.8	-0.6%
O=C(O)c1c(N2CCCCC2)ccc([N+](=O)[O-])c1N1CCCCC1	-51.0%[inhibitor]	-0.3%	5.3	25.8	2.8%	1.6	-0.2%
O=C(/C=C/c1ccc2c(c1)OCO2)N1CCCCC1	-0.6%[15.4 µM]	4.3%	-7.1	-25.0	7.2%	-1.9	-1.6%
Cc1ccc(Cn2cccc2/C=C2/C(=N)N3C=CSC3=NC2=O)cc1	6.2%	6.1%	2.4	22.5	-5.6%	5.1	-1.7%
Cc1sc2ncn(CC(=O)NCCCN3CC(C)CC(C)C3)c(=O)c2c1S(=O)(=O)N1CC(C)CC(C)C1 (configuration not stated)	-5.0%[15.4 µM]	4.7%	-15.5	-2.4	11.8%	3.9	.
CCCCN1CCN=C1N(C)C	.	-7.8%	-5.4	-21.7	.	.	-1.6%
O=C(COC(=O)c1cc2ccccc2cc1O)Nc1ccccc1F	3.4%	-23.5%	4.6	.	.	.	0.0%
O=C(NCC1(c2ccccc2)CCOCC1)c1cccs1	-0.6%[15.4 µM]	-0.9%	0.0	-13.8	15.4%	-4.4	.
CCOC(=O)c1c(C)[nH]c(C)c1S(=O)(=O)N1CCC(c2ccccc2)C1 (configuration not stated)	25.6%	-0.6%	.	-6.9	4.3%	.	0.6%
Cc1cccc(/C=N/NC(=O)c2ccc(NC(=O)c3ccccc3C)cc2)n1	10.8%	-14.5%	-25.0	-12.0	11.6%	-6.0	.
Cc1ccc(-n2nc3c(c2NC(=O)c2cc4ccccc4o2)CS(=O)(=O)C3)cc1	-5.1%	-3.2%	-2.2	0.2	-5.6%	2.3	-3.7%
CC(C)N1C(=O)C2C(C(=O)NC3CCCCC3)C3C=CC2(O3)C1C(=O)NC1CCCC1 (configuration not stated)	?	6.5%	2.4	-8.1	2.8%	-2.6	-1.5%
O=C(O)CN(c1ccccc1)C1SC(=O)NC1=O (configuration not stated)	12.2%	2.3%	6.3	4.3	-19.9%	1.7	0.7%
C[C@@H]1C=C(C(=O)O)O[C@H](OCc2ccc(CO)cc2)C1	1.4%	1.4%	-5.0	-4.3	-3.0%	-4.1	2.4%
Cc1ccc2c(C)nc(Nc3ncc4c(n3)CCCC4=O)nc2c1	-68.2%[inhibitor]	0.1%	4.3	.	.	.	0.3%
CC(=O)Nc1cccc(-n2nnc(SCC(N)=O)n2)c1	1.8%	12.6%	.	26.5	13.6%	1.1	1.4%
c1ccc2[nH]c(SCc3ccc(-c4nnco4)cc3)nc2c1	4.0%	-12.1%	-3.9	-5.7	5.6%	-1.1	-2.6%
CC(=O)c1ccc(S(=O)(=O)N(CCCO)Cc2cc3cc4c(cc3[nH]c2=O)OCCO4)cc1	-21.7%[15.4 µM]	2.3%	0.0	0.3	11.7%	6.4	.

# High-throughput results as filed in PubChem.
